# MARV entry inh: qHTS for inhibitors of binding or entry into cells for Marburg Virus | Marburg virus pseudotyped entry inhibition, cell reporter; control for the full effect not named in the record; about a third of the inactives were read at about 46 µM | Potency, µM (top dose mostly 37.8 µM), for inactives: top-dose activity change, negative = inhibition, usual class: inhibitors | hit rate 1.8% among 300,000 | AID 540276, 2011; active = well fitted inhibition curve with a large enough effect; inconclusive = small, poorly fitted or top-dose-only effect, or effect the other way; inactive = flat fitted curve, though single readings scatter; tested in HEK293 cells; about a fifth of its hits are not listed in these tables; also: % is scaled to controls: 0 for no effect and ±100 for the full control effect; luciferase read-out
# LASV entry inh: qHTS for Inhibitors of binding or entry into cells for Lassa Virus | Lassa virus pseudotype entry inhibition, cell reporter; control for the full effect not named in the record | Potency, µM (highest dose often 37.9 µM), for the others: top-dose activity change, negative = inhibition, actives largely listed as inhibitors | hit rate 1.2% among 300,000; active means well fitted inhibition curve with a large enough effect; inconclusive means small, poorly fitted or top-dose-only effect, or effect the other way; inactive means flat fitted curve, though single readings scatter; tested in HEK293 cells; also: % is scaled to controls: 0 for no effect and ±100 for the full control effect; nearly all actives have a fitted effect of over 50% in size; luciferase read-out
# Cruzain Triton: qHTS Assay for Promiscuous and Specific Inhibitors of Cruzain (with detergent); hit rate 0.43% among 200,000; Potency, µM, for inactives: max response, negative = inhibition, usual class: inhibitors; purified cruzain, Z-FR-AMC fluorescence, 0.01% Triton;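 also: plate controls were neutral wells for no effect and buffer without enzyme for full effect; nearly all actives have a fitted effect of over 40% in size; top concentration of the series not given in the record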
# Target sequence (P25779 123-467 limits assumed): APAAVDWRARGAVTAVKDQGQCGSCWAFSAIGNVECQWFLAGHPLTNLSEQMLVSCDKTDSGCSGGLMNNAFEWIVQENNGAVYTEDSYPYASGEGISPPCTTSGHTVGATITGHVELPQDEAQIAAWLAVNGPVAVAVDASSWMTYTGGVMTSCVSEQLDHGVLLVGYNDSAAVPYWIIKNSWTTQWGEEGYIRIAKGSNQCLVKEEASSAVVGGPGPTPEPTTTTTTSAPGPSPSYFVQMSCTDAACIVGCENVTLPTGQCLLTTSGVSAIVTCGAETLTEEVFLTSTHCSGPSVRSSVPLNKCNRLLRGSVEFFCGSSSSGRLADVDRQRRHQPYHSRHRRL
#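 Z-FR-AMC hydrolysis (2 uM substrate) by cruzain (1.5 nM) monitored kinetically at ex 360/em 450 nm after 15 min room-temperature compound exposure; 0.01% Triton X-100, pH 5.5, 5 mM DTT.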
# Cruzain noTriton: qHTS Assay for Promiscuous and Specific Inhibitors of Cruzain (without detergent); purified cruzain, Z-FR-AMC fluorescence, no detergent; Potency, µM, inactives show max response, negative = inhibition, hits mostly inhibitors; hit rate 2.3% among 200,000; AID 1476, 2009;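 also: plate controls were enzyme without inhibitor for no effect and buffer without enzyme for full effect; nearly all actives have a fitted effect of over 40% in size; top concentration of the series not given in the record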
#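 Detergent-free condition (0.00005% Triton X-100) in acetate buffer pH 5.5 with DTT. 1.5 nM enzyme and compound were pre-mixed 15 min, then 2 uM Z-FR-AMC substrate added; reaction progress from fluorescence change between first and third reads (60 s).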
# SARS PLpro yeast: qHTS of Yeast-based Assay for SARS-CoV PLP; S. cerevisiae expressing SARS-CoV PLpro, growth rescue; control for the full effect not named in the record; Potency, µM (series often up to 32.9 µM), for inactives: at the highest dose activity, positive = growth rescue; hit rate 0.19% among 330,000; active means well fitted rising curve with a large enough effect; inconclusive means small, poorly fitted or top-dose-only effect; inactive means no such curve, though single readings can be large or run the other way; also: 0% is about no effect; nearly all actives have a fitted effect of over 55% in size; growth read by luminescence after 48 h
# NS1 function inh: qHTS Assay for Inhibitors of Influenza NS1 Protein Function | S. cerevisiae slowed by influenza A NS1, growth recovery by OD600 | Potency, µM (series often up to 46.1 µM), without a hit: top-dose activity, positive = more growth | hit rate 0.4% among 270,000 | AID 2326, 2010; active means well fitted rising curve with a large enough effect; inconclusive means small, poorly fitted or top-dose-only effect; inactive means no such curve, though single readings can be large or run the other way; also: nearly all actives have a fitted effect of over 50% in size
#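 Compounds were scored for reversing the slow growth caused by influenza A NS1 in S. cerevisiae, measured by optical density at 600 nm. Assay medium contained 2% galactose at pH 6.0; NS1-free yeast of the same strain were the positive control.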
# RE007 growth inh: qHTS Assay for Inhibitors of the HIV-1 protein Vpr. S. pombe RE007 Vpr strain, BacTiter-Glo ATP luminescence, 24 h; control for the full effect not named in the record. hit rate 0.21% among 360,000. Potency, µM (titrated, usually from 92.2 µM), for inactives: at the highest dose activity change, negative = less growth; active = well fitted falling curve with a large enough effect; inconclusive = small, poorly fitted or top-dose-only effect; inactive = no such curve, though single readings can be large or run the other way;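 also: % is scaled to controls: 0 for no effect and ±100 for the full control effect; nearly all actives have a fitted effect of over 50% in size; the assay follows cell death caused by Vpr and the record does not say whether a fall means rescue or toxicity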
#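 Fission yeast RE007 carrying one integrated HIV-1 vpr copy, seeded at OD 0.01 in PMG+AL medium with 23 nL pinned compound. Grown 24 h at 30 degrees; viability read by BacTiter-Glo luminescence after 5 min.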
# 2A StopGo: High Throughput Screening for Foot and Mouth Disease Virus Antivirals; human cells with a luciferase reporter of 2A StopGo recoding; control for the full effect not named in the record; Potency, µM (highest dose often 57.9 µM), for inactives: top-dose signal change, negative = less light; hit rate 1.2% among 410,000; active = well fitted falling curve with a large enough effect; inconclusive = small, poorly fitted or top-dose-only effect; inactive = no such curve, though single readings can be large or run the other way; tested in HEK293T cells; also: % is scaled to controls: 0 for no effect and ±100 for the full control effect; nearly all actives have a fitted effect of over 45% in size; luciferase light after 4 h
# Active calls of the source: *; ? = inconclusive; / = no result given; [ ] = another dose, or the depositor's remark. Unless noted, calls follow the shape of the dose curve; as a rule, active = well fitted curve in the direction sought with a large enough effect; inconclusive = small, poorly fitted or top-dose-only effect, or another doubt; inactive = no such curve, though single readings can be large; an effect the other way counts as inactive or inconclusive. Potency is read from the fitted curve at half-maximal effect. Random draw from the library; overall some 4.7% were active at least once.
(1) O=C(Nc1ccc2nn(-c3ccccc3)nc2c1)c1ccc2c(c1)OCCO2
(2) Cc1cn2c(=O)c(C(=O)N3CCN(c4ccccc4F)CC3)cnc2s1
(3) CCC(=O)Nc1ccc(C(=O)CSc2nnc(-c3ccccc3F)n2CCc2ccccc2)cc1
(4) COc1ccc(S(=O)(=O)N2CCCCCC2)cc1C(=O)N(C)CCOc1ccc(Cl)cc1
(5) CCOc1ccccc1C(=O)NCC(=O)NNC(=O)c1cccc(S(=O)(=O)Nc2ccc(OC)cc2)c1
(6) CCC(C(=O)NC(C)(C)C)N(C(=O)c1ccc(Cl)nc1)C1CCCC1 (stereo not given)
(7) NC1=NS(=O)(=O)NC1c1cccc(Cl)c1 (stereo not given)
(8) COc1ccccc1NC(=O)c1sc2nc3n(c(=O)c2c1C)N=C(c1cccc(Br)c1)CS3
compound no.	1	2	3	4	5	6	7	8
MARV entry inh	-20%[46.1 µM]	?	9%	?	-2%	-6%[46.1 µM]	-2%	/
LASV entry inh	?	24%	?	18µM*	-6%	-5%[46.1 µM]	6%	28%[46.1 µM]
Cruzain Triton	-7.3%	/	-3.8%	/	/	/	3.5%	1.5%
Cruzain noTriton	?	/	3%	/	/	/	4%	-8%
SARS PLpro yeast	2%	-1%	-1%	0%	-3%	1%	-1%	/
NS1 function inh	4%	/	20%	/	/	6%	1%	/
RE007 growth inh	1%	6%	7%	17%	1%	-3%	5%	/
2A StopGo	25µM*	8%	-18%	?	8%	-3%	-21%	-11%

(9) O=C1Nc2ccc(S(=O)(=O)N(CCO)CCO)c3cccc1c23
(10) CC(/C=C/c1ccccc1)=N/NC(=O)Cn1nnc(N)n1
(11) CC1CCCCC12NC(=O)N(CC(=O)NCCc1ccccn1)C2=O (stereo not given)
(12) COc1ccc(-c2cnnn2-c2ccc(NC(=O)c3c(F)cccc3F)cc2)cc1
(13) CC1=NN(C(C#N)c2ccccc2)C(c2ccccc2)C1 (stereo not given)
(14) CC(=O)Nc1ccc(N=Cc2c(O)ccc3ccccc23)cc1
(15) NC(=O)c1sc2cc(C(F)(F)F)cnc2c1-c1cccs1
(16) COc1ccc(CCNC(=O)c2cn(C)c3ccc(S(=O)(=O)N(C)C)cc3c2=O)cc1OC
compound no.	9	10	11	12	13	14	15	16
MARV entry inh	-16%	23%[46.1 µM]	0%	/	/	/	-1%[46.1 µM]	5%[46.1 µM]
LASV entry inh	20%	14%	-4%	?	/	/	-16%	4%[46.1 µM]
Cruzain Triton	/	/	1.3%	10%	/	/	0.4%	-2.3%
Cruzain noTriton	/	/	-7%	?	/	/	-3%	5%
SARS PLpro yeast	4%	-1%	-13%	/	0%	1%	7%	/
NS1 function inh	-5%	-6%	-6%	/	11%	-20%	1%	/
RE007 growth inh	-4%	3%	1%	/	-3%	-2%	-2%	/
2A StopGo	-5%	6%	14%	-27%	-14%	-3%	-14%	8%

(17) COC(=O)c1ccc(CSc2nc3ccccc3c(=O)n2N)cc1
(18) O=C(CCCn1c(=O)c2sccc2n(CC(=O)NCc2ccco2)c1=O)NCc1ccco1
(19) COc1ccc(C(c2nnnn2Cc2cccs2)N2CCN(c3ccc(F)cc3)CC2)cc1OC (stereo not given)
(20) CCN(C(=O)COC(=O)c1cc(=O)c2ccccc2o1)c1c(N)n(Cc2ccccc2)c(=O)[nH]c1=O
(21) O=C(CCCN1C(=O)c2ccccc2C1=O)Nc1c(C(=O)C2CC2)oc2ccccc12
(22) CCc1cccc2c(C(=O)CN3C(=O)NC4(CCCCC4)C3=O)c[nH]c12
(23) Cc1nn(C)cc1NC(=O)CC12CC3CC(CC(C3)C1)C2
(24) C/C(=N\NC(=O)CSc1ncccn1)c1ccc2c(c1)OCCO2
compound no.	17	18	19	20	21	22	23	24
MARV entry inh	-14%[46.1 µM]	?	?	8%	0%	?	12%	-13%[46.1 µM]
LASV entry inh	8%[46.1 µM]	-11%	8.2µM*	13%[46.1 µM]	/	?	-28%	-7%
Cruzain Triton	/	-1.3%	1.0%	/	15%	/	1.3%	/
Cruzain noTriton	/	-8%	?	/	0%	/	4%	/
SARS PLpro yeast	0%	?	0%	-1%	0%	0%	-7%	1%
NS1 function inh	-4%	2%	-5%	/	3%	/	-3%	8%
RE007 growth inh	8%	-13%	6%	-7%	7%	2%	2%	-3%
2A StopGo	-11%	-16%	-11%	-13%	-21%	0%	-15%	26%

(25) CCN1C(=O)N(S(=O)(=O)c2ccc(C)cc2)[C@@H](c2ccccc2)C(C(=O)OC)=C1C
(26) O=C(O)CNC1=NCCCCC1
(27) CSc1ccccc1C(=O)Nc1cc(C)ccc1C
(28) CN1CCc2c(sc3c2C(=O)NC(/C=C\c2ccccc2)N3)C1 (stereo not given)
(29) OC1(c2cccc(C(F)(F)F)c2)CCN(c2ncnc3c2[nH]c2ccc(F)cc23)CC1
(30) Cc1ccc(NS(=O)(=O)c2ccc(C)c(C(=O)Nc3ccc(S(=O)(=O)Nc4onc(C)c4C)cc3)c2)cc1
(31) O=C(Nc1nccs1)c1ccc2c(c1)OCO2
(32) CCOC(=O)C1(Cc2ccc(O)cc2)NC(c2ccco2)C2C(=O)N(c3ccccc3F)C(=O)C21 (stereo not given)
compound no.	25	26	27	28	29	30	31	32
MARV entry inh	17%[14.2 µM]	-7%	/	16%[14.2 µM]	4µM*	?	?	11%
LASV entry inh	/	1%	/	19%	14µM*	11%	-12%[46.1 µM]	8%
Cruzain Triton	/	6.0%	/	/	-1.8%	/	/	5.3%
Cruzain noTriton	/	-3%	/	/	?	/	/	1%
SARS PLpro yeast	-5%	-1%	-1%	1%	/	/	-3%	6%
NS1 function inh	-13%	-6%	0%	4%	-183%	/	-15%	-17%
RE007 growth inh	-13%	8%	4%	-6%	17%	-10%	-2%	3%
2A StopGo	-9%	/	-13%	-16%	?	-7%	51%[activator]	-15%

# 2 entries picked at random from the list so far:
(27) CSc1ccccc1C(=O)Nc1cc(C)ccc1C
(10) CC(/C=C/c1ccccc1)=N/NC(=O)Cn1nnc(N)n1
compound no.	27	10
MARV entry inh	/	23%[46.1 µM]
LASV entry inh	/	14%
Cruzain Triton	/	/
Cruzain noTriton	/	/
SARS PLpro yeast	-1%	-1%
NS1 function inh	0%	-6%
RE007 growth inh	4%	3%
2A StopGo	-13%	6%

# Record cards, as listed above.
# Listed for `CCN1C(=O)N(S(=O)(=O)c2ccc(C)cc2)[C@@H](c2ccccc2)C(C(=O)OC)=C1C` → MARV entry inh = 17%[14.2 µM]; LASV entry inh = /; Cruzain Triton = /; Cruzain noTriton = /; SARS PLpro yeast = -5%; NS1 function inh = -13%; RE007 growth inh = -13%; 2A StopGo = -9%
# Listed for `CSc1ccccc1C(=O)Nc1cc(C)ccc1C` → MARV entry inh = /; LASV entry inh = /; Cruzain Triton = /; Cruzain noTriton = /; SARS PLpro yeast = -1%; NS1 function inh = 0%; RE007 growth inh = 4%; 2A StopGo = -13%

# Further compounds:
(33) O=C(Nc1cc(S(=O)(=O)N2CCOCC2)ccc1N1CCCCC1)c1ccccc1Br
(34) Cn1c(N)c(C(=O)NCc2ccccc2Cl)sc1=S
(35) S=C(NCc1ccccc1)NCc1cccc(Cl)c1
(36) Cc1ccccc1NC(=O)CN(C)S(=O)(=O)c1ccc(-c2ccc(=O)[nH]n2)s1
(37) Cc1onc(-c2c(F)cccc2Cl)c1C(=O)N1CCSCC1
(38) Cc1cc(NC(=O)COc2cccnc2[N+](=O)[O-])no1
(39) C=CCn1c(COc2ccc(F)cc2)nnc1SCC(=O)Nc1cccc(S(N)(=O)=O)c1
(40) COc1ccccc1NC(=O)NCC1CC1(Cl)Cl (stereo not given)
compound no.	33	34	35	36	37	38	39	40
MARV entry inh	?	-17%	-7%[46.1 µM]	/	10%[46.1 µM]	19%	-4%[46.1 µM]	1%[46.1 µM]
LASV entry inh	?	5%	-18%[46.1 µM]	/	22%	28%	-6%[46.1 µM]	17%[46.1 µM]
Cruzain Triton	/	2.7%	/	/	/	/	/	/
Cruzain noTriton	/	-3%	/	/	/	/	/	/
SARS PLpro yeast	0%	1%	?	3%	0%	-1%	0%	-3%
NS1 function inh	/	-12%	-57%	6%	2%	5%	/	-25%
RE007 growth inh	12%	7%	8%	-3%	-7%	-17%	-14%	-5%
2A StopGo	0%	0%	23%	-19%	0%	12%	-10%	29%

# Down the list, quoted from above.
# MARV entry inh, entries 37 to 40, in order: 10%[46.1 µM], 19%, -4%[46.1 µM], 1%[46.1 µM]

# Next part.
(41) Cc1ccc(C(=O)CSC2=C(C#N)C(c3ccco3)C3=C(CC(C)(C)CC3=O)N2)cc1 (stereo not given)
(42) O=C(NC1CCCCC1)C(c1ccncc1)N(C(=O)c1csnn1)c1cccc(F)c1 (stereo not given)
(43) CN(C)CCNc1c2c(nc3ccccc13)CCC2
(44) O=C(COCC(=O)N/N=C/c1ccc(F)cc1)N/N=C/c1ccc(F)cc1
(45) Cn1c(-c2ccccc2)cnc1NCc1ccccc1O
(46) O=C(O)c1ccccc1-c1cc2ccccc2[nH]1
(47) O=C(Nc1ccc2c(c1)CCC2)c1cccc(S(=O)(=O)N2CCN(c3ccccc3)CC2)c1
(48) CCOc1cc(N2CCOCC2)c(OCC)cc1NC(=O)COc1ccc2ccc(=O)oc2c1
compound no.	41	42	43	44	45	46	47	48
MARV entry inh	?	21%[46.1 µM]	/	11%	2%[46.1 µM]	5%	?	-3%
LASV entry inh	?	11%	/	12%	0%[46.1 µM]	16%	-2%	/
Cruzain Triton	-7.5%	/	/	2.0%	-14%	/	0.5%	-2.4%
Cruzain noTriton	-18%	/	/	-8%	-29%	/	25µM*	7%
SARS PLpro yeast	3%	0%	2%	23%	/	/	-2%	9%
NS1 function inh	7%	0%	0%	2%	/	/	13µM*	0%
RE007 growth inh	8%	6%	-11%	-7%	/	3%	13%	/
2A StopGo	-29%	-1%	-8%	70%[activator]	1%	13%	-6%	/

# Looked up above.
# MARV entry inh with cpd 29 = 4µM*
# 2A StopGo with cpd 2 = 8%
# RE007 growth inh with cpd 42 = 6%
